B2AR ag = agonists of human beta-2 adrenergic receptor inducing internalization; P07550; Am2.2-beta2AR cells, FAP receptor internalization, flow cytometry; reference of the scale not given here; response, % (concentration not given with the values); hit rate 0.43% among 340,000;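 active = response above a set limit, near 3 SD of response in nonfluorescent compounds, cut at about 42% in these data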;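 also: stock transfer was 100 nL into about 11 µL; a reference agonist was the positive control; negative values mostly stem from fluorescent compounds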
Target sequence (P07550 whole entry, looked up): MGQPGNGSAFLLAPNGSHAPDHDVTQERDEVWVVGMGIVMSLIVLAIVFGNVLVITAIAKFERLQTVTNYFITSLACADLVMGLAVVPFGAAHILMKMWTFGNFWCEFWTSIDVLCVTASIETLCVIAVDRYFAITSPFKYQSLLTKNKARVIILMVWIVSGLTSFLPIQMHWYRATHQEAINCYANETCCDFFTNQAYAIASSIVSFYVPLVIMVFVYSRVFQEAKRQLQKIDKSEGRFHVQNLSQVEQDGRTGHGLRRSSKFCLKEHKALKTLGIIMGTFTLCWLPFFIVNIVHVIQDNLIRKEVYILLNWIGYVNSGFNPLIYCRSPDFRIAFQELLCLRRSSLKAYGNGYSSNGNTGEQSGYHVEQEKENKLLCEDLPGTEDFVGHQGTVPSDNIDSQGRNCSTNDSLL
HNF4A DNA FP = change in binding of human HNF4 alpha to DNA; P41235; HNF4a-FITC DNA binding, fluorescence polarization, 1 h; activity change, % at 10 µM; hit rate 0.3% among 360,000; AID 1224865; in the data active = activity change above about 30%, passing the limit was not always enough;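 also: controls were the assay level and a saturating level of protein; the project sought stronger binding though the title names inhibitors; some compounds called inactive have numbers as strong as hits; positive values seem to mean higher polarization but the record does not say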
E coli growth = inhibitors of Escherichia coli growth | OD600, 23 h; stronger effect = lower value | OD600 absorbance (no concentration beside the values) | hit rate 0.21% among 330,000 | AID 1053175;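 active = OD600 absorbance below the run mean of sample wells minus 3.6 SD, in any replicate, cut at about 0.56 in these data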;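 also: stock transfer was 300 nL into about 60 µL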
ALR inh = blocks human ALR sulfhydryl oxidase activity; hit rate 3.8% among 290,000; purified ALR, DTT oxidation, H2O2 HRP-luminol luminescence; P55789; inhibition, % (test concentration not listed); AID 485317;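 active = mean and each replicate at 75% or more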;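 also: stock transfer was 7.5 nL into about 7.5 µL; 0% = neutral wells and 100% = wells with inactivated enzyme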
Target sequence (P55789 whole entry, looked up): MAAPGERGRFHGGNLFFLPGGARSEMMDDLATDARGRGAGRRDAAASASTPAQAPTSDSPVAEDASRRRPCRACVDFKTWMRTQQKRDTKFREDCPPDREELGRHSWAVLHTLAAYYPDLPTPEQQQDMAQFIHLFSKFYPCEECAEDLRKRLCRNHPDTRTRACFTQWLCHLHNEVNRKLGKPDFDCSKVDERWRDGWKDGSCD
LANA-H2B inh = blocks KSHV LANA binding to histone H2A/H2B; inhibition, % (no concentration beside the values); AID 2629; cell-free LANA-H2A/H2B peptide, fluorescence polarization; hit rate 0.6% among 320,000; Q9QR71; in the data active = inhibition mostly above about 10%, no sharp cut-off; inactive = mostly below about 6.7%;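 also: stock transfer was 7.5 nL into about 10 µL; 0% = median of vehicle wells and 100% = median of positive control wells; one replicate is shown; the record names a cut of 25% in any replicate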
FGF22 binding = FGF22 (human) thermal shift binding; AID 651658; hit rate 1.5% among 340,000; calls only at 9.99 µM; recombinant FGF22 thermal shift, SYPRO orange fluorescence; percent of sucrose octasulfate shift, DMSO zero;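 active = melting point raised past a set limit in the mean and every replicate; three in four hits are not shown here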
Target sequence (Q9HCT0 whole entry, looked up): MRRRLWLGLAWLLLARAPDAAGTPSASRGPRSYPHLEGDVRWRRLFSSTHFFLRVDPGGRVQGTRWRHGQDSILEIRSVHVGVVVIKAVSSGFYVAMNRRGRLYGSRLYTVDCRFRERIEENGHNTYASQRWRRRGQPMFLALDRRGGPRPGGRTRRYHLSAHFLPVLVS
UCH37 inh = human UCH37 deubiquitinating enzyme inhibition | hit rate 0.33% among 330,000 | purified proteasome/UCH37, Ub-AMC cleavage fluorescence | inhibition, % (concentration not given with the values);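 active = mean of two replicates above 20%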;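 also: 0% = compound-free wells with enzyme and 100% = wells lacking proteasome; stock transfer was 100 nL into about 20 µL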
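Signal – fluorescence, ex 355 nm, em 460 nm · System – Proteasome-bound UCH37 · Input – 0.15 nM proteasome as dispensed · Timing – 30 min preincubation with enzyme, 25 min cleavage at room temperature · Read-out basis – percent inhibition of cleavage signal versus uninhibited and no-proteasome wells · Medium – Tris-HCl pH 7.4 with ATP-MgCl2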
The depositor's hits bear a star; i = inactive; x = no result given; + = active, no number. A portion of the library (hit frequency here may not be typical).

SMILES | B2AR ag | HNF4A DNA FP | E coli growth | ALR inh | LANA-H2B inh | FGF22 binding | UCH37 inh
COc1ccc(C(=O)NC(=S)N2CC(C)OC(C)C2)cc1 (stereo unspecified) | 3.7 | -0.6 | 0.68 | 7.4 | -1.0 | i | 5.1
COc1ccc(-n2nc(C(=O)NCC(=O)NCCC3=CCCCC3)c3ccccc3c2=O)c(OC)c1 | -1.8 | 2.2 | 0.702 | 6.8 | 1.1 | i | 1.6
COc1cccc(NC(=O)c2ccccc2-c2nc(-c3ccc(Cl)cc3)no2)c1 | -9.0 | -2.0 | 0.724 | -2.2 | -1.4 | x | -0.1
CCc1[nH]nc(C(=O)N2CCCC(C(=O)c3cccc(OC(C)C)c3)C2)c1C (stereo unspecified) | -9.9 | -0.5 | 0.678 | -7.8 | 0.7 | i | 2.6
Cc1ccc(Cl)cc1N(CC(=O)NCc1ccccc1)S(C)(=O)=O | 1.9 | 4.8 | 0.701 | -28.4 | 4.2 | i | 5.1
Cc1ccc2oc(=O)n(CC(=O)OCCC(C)C)c2c1 | -1.3 | 3.7 | 0.731 | x | 2.5 | i | 4.2
CCOC(=O)COc1cccc2c(=O)n(CC(N)=O)ccc12 | 7.1 | -3.2 | 0.69 | 1.7 | -2.7 | i | -4.5
Cc1cc(OC(=O)c2c(C)cc(OC(=O)c3c(C)cc(O)cc3O)cc2O)cc(O)c1C(=O)O | -0.8 | -3.5 | 0.72 | x | -3.5 | + | -4.2
COC(=O)c1c(-c2cc(C)ccc2C)csc1NC(=O)C1CC=CCC1C(=O)O (stereo unspecified) | -0.1 | -3.3 | 0.698 | 70.4 | 1.5 | i | 3.1
O=C(CCC(=O)N1CCOc2ccc(Cl)cc21)NCc1ccccc1 | 9.8 | 1.5 | 0.782 | -8.2 | -3.5 | i | 3.4
CC(=O)c1cccc(NC(=O)c2ccc(NS(=O)(=O)c3c(C)noc3C)cc2)c1 | 8.4 | 1.9 | 0.711 | -3.7 | -3.6 | x | 4.5
O=C(Nc1ccccc1[N+](=O)[O-])c1cc2ccccc2nc1Cl | -8.1 | 1.8 | 0.691 | 1.0 | 2.5 | i | 1.9
Cc1ccc2nc(NC(=O)Cn3nc(C)c([N+](=O)[O-])c3C)sc2c1 | 2.5 | -0.4 | 0.704 | -2.2 | -2.8 | x | 1.5
O=C(NCc1ccco1)c1ccc2c(c1)C(=O)N(Cc1ccccc1)C2=O | 4.1 | -0.2 | 0.703 | -1.8 | 1.5 | x | 2.7
O=C(Nc1ccc(S(=O)(=O)Nc2nccs2)cc1)/C(=C/c1ccccc1Cl)NC(=O)c1ccccc1 | 4.3 | -3.3 | x | 0.6 | -2.6 | i | x
Cc1ccccc1NC(=O)CSCc1nc(N)nc(Nc2ccccc2C)n1 | 12.6 | -0.8 | 0.687 | -2.5 | 0.7 | i | 3.5
O=C(Nc1nc(-c2cccc3ccccc23)cs1)c1ccc2c(c1)S(=O)(=O)c1ccccc1C2=O | 9.4 | 1.6 | 0.734 | -9.0 | 3.6 | i | 4.8
NC(=O)c1cc([N+](=O)[O-])ccc1NCc1ccccn1 | -6.8 | -2.9 | 0.677 | -15.9 | 0.2 | i | 4.2
CSc1ccc(S(=O)(=O)NCc2ccc(Cl)cc2)cc1 | 6.8 | -0.9 | 0.741 | 5.9 | -13.1 | x | 3.1
C=CCN1C(=O)N(CC=C)c2cccc3cccc1c23 | 10.3 | 0.6 | 0.652 | -21.6 | 2.0 | i | 2.6
Cc1ccc(NC(=O)N(Cc2cccnc2)Cc2ccco2)cc1C | -3.6 | 2.2 | 0.656 | -0.2 | 2.1 | x | 3.3
CC(=O)Nc1ccc(S(=O)(=O)NCC(=O)OCC(=O)N2CCc3ccccc32)cc1 | 0.1 | -0.1 | 0.694 | 21.9 | 11.4* | x | 6.2
COc1ccccc1-c1cnn2c(NCc3ccccc3)cc(C)nc12 | 6.7 | -2.2 | 0.682 | -2.2 | -2.0 | i | -109.4
COc1ccc(/C=C\c2cc(OC)c(OC)cc2CC[N+](C)(C)C)cc1OC | 3.5 | 0.2 | 0.709 | -2.4 | -5.7 | i | -85.1

Two entries picked at random from the list so far:
SMILES | B2AR ag | HNF4A DNA FP | E coli growth | ALR inh | LANA-H2B inh | FGF22 binding | UCH37 inh
COc1cccc(NC(=O)c2ccccc2-c2nc(-c3ccc(Cl)cc3)no2)c1 | -9.0 | -2.0 | 0.724 | -2.2 | -1.4 | x | -0.1
Cc1ccc2oc(=O)n(CC(=O)OCCC(C)C)c2c1 | -1.3 | 3.7 | 0.731 | x | 2.5 | i | 4.2

Further structures:
SMILES | B2AR ag | HNF4A DNA FP | E coli growth | ALR inh | LANA-H2B inh | FGF22 binding | UCH37 inh
COc1ccccc1C(=O)NC(=O)COC(=O)CN1C(=O)NC2(CCCCC2C)C1=O (stereo unspecified) | 5.1 | 2.0 | 0.684 | -0.7 | -6.3 | i | 0.1
COc1cc(Cl)c(C)cc1NC(=S)NN | 1.1 | 1.4 | 0.702 | 3.5 | 7.5 | x | 2.4
Cc1cccc(NC(=O)c2nc[nH]c2C(=O)N2CCc3ccccc3C2)c1 | -6.7 | -0.5 | 0.726 | -3.9 | 4.0 | i | 0.8
CC(=O)NS(=O)(=O)c1ccc(NC(=O)/C=C/c2ccccc2)cc1 | -3.3 | 1.0 | 0.69 | -0.9 | -7.7 | x | 5.1
NC(=O)COc1ccccc1C(=O)O | -0.3 | 3.9 | 0.73 | 87.4* | 1.8 | i | -0.9
Nn1c(SC/C=C/c2ccccc2)nnc1-c1ccncc1 | -3.0 | 1.0 | 0.655 | 23.2 | 9.4 | x | -3.1
Nc1ccc(Cn2ccc3c4c(N)nc(N)nc4ccc32)cc1 | 18.9 | -4.6 | x | x | x | i | x
Cc1cc(N2CCCCCC2)nc2ccccc12 | 10.6 | -0.5 | 0.685 | -3.4 | 2.1 | x | -1.4
CCC1CCCCN1C(=O)CSc1nc2c(cnn2-c2ccc(C)cc2)c(=O)[nH]1 (stereo unspecified) | 6.0 | -1.1 | 0.745 | x | 4.6 | i | 3.7
COc1ccc(N=C2NC(=O)C(CC(=O)NCCc3ccc(OC)c(OC)c3)S2)cc1 (stereo unspecified) | 0.0 | 3.9 | 0.699 | -8.8 | 8.8 | i | -0.3
COC(C(=O)Nc1ccnn1C1CCN(Cc2cnn(C)c2)CC1)c1ccccc1 (stereo unspecified) | -13.0 | 2.3 | 0.702 | -4.3 | 0.8 | i | 0.9
CCOC(=O)N1CCN(C(=O)c2noc(C(C)C)c2[N+](=O)[O-])CC1 | 1.1 | -3.9 | 0.708 | -2.4 | 3.1 | i | 1.8
Cn1c(=O)c2c(SCC(=O)Nc3nccs3)nc(C3CC3)nc2n(C)c1=O | -77.5 | 7.4 | 0.69 | -11.3 | -3.5 | i | -1.3
C=CCn1c(=S)[nH]c2cc(C(=O)Nc3ccc(OC)c(OC)c3)ccc2c1=O | 9.9 | 0.1 | 0.68 | -8.4 | -1.7 | i | 4.8
COc1ccc(C(=O)N=c2sc3ccccc3n2C)cc1OC | -10.1 | 1.2 | 0.635 | -2.9 | -2.4 | + | -27.4
N#Cc1cc2c(nc1Cl)CCCC2 | -16.0 | 2.4 | 0.637 | 1.9 | 8.3 | x | -4.2
C[n+]1ccccc1/C=C/c1ccc([N+](=O)[O-])cc1 | 11.2 | -0.8 | 0.685 | -7.6 | -0.1 | i | 9.2
CCOc1ccc(S(=O)(=O)N2CCOCC2)cc1NC(=O)CSCC(=O)Nc1ccc(OC)cc1 | 0.7 | -3.2 | 0.62 | x | x | i | 2.9
CC1(C(=O)OCC(=O)Nc2cccc(S(=O)(=O)NC3=NCCCCC3)c2)CC1(Cl)Cl (stereo unspecified) | -2.7 | -1.3 | 0.731 | x | -0.2 | i | -1.0
O=C1NC(c2ccc(Br)cc2)Oc2ccccc21 (stereo unspecified) | -2.1 | -2.2 | 0.689 | -1.7 | 3.0 | i | -6.2
COc1ccc(CNC(=O)CN2CCN(S(=O)(=O)c3cc(Br)ccc3Br)CC2)cc1OC | -2.0 | 2.4 | 0.663 | x | x | x | 0.7
Cc1cccc(C)c1OCC(O)CNC(C)c1ccccc1 (stereo unspecified) | 10.2 | -0.9 | 0.615 | -1.7 | 2.5 | i | 3.3
CCCOC(=O)c1ccc(Nc2cc(C)nc3ncnn23)cc1 | 1.0 | 1.3 | 0.688 | 2.4 | 6.2 | x | 5.6
Cc1cc(Cl)ccc1Oc1nc(-c2ccc(F)cc2)ccc1C#N | 0.0 | -2.5 | 0.732 | -8.0 | -1.7 | x | -84.3
Cc1cc(=O)[nH]c(-c2cccs2)n1 | -3.1 | -3.6 | 0.646 | -27.0 | 0.5 | i | 2.8
C=CCN1C(=O)CS/C1=N/c1nccs1 | 0.1 | -1.2 | x | -14.2 | -2.1 | i | x
c1ccc(CSc2nnc3ccc(-c4ccncc4)nn23)nc1 | 2.4 | -1.2 | 0.719 | -3.4 | -9.3 | i | 1.7
CCCCC(=O)NC(=S)NNC(=O)c1ccc(Cl)cc1Cl | 6.2 | 1.9 | 0.727 | x | x | i | 0.3
Cn1cccc1Cc1nnc(SCC(=O)NCc2ccccc2)n1-c1ccc(F)cc1 | -7.8 | -0.6 | 0.705 | x | -4.0 | i | 5.1
COc1ccccc1NS(=O)(=O)c1cccc(C(=O)N/N=C/c2c(CO)cnc(C)c2O)c1 | 8.0 | 11.0 | x | 25.1 | -1.0 | i | x
C=CCn1c(COc2cccc3cccnc23)nnc1SCC(=O)OC | 3.4 | -3.1 | 0.723 | -24.4 | -4.5 | x | -5.0
O=C(Nc1cccc(Cl)c1)Nc1ccnc(-c2cccnc2)n1 | 5.9 | 2.9 | 0.631 | -20.2 | -3.6 | i | 2.5
O=S(=O)(NCC(c1cccnc1)N1CCOCC1)c1ccc(Cl)cc1 (stereo unspecified) | -8.8 | -0.1 | 0.691 | -16.4 | 2.8 | i | 3.3
Cn1c(SCC(=O)Nc2nc(C(C)(C)C)cs2)nnc1C1CC1 | -2.4 | 3.3 | 0.652 | -3.1 | 0.3 | i | 1.8
COc1ccc(S(=O)(=O)Nc2c(C(=O)O)[nH]c3ccccc23)cc1OC | 0.8 | 2.9 | 0.735 | 10.5 | -2.4 | x | -6.3
Cn1c(OCc2ccc3c(c2)OCO3)nc2c1c(=O)n(Cc1ccc(Cl)c(Cl)c1)c(=O)n2C | 19.4 | 5.2 | 0.734 | -0.5 | -4.1 | x | 1.6
O=C(CSc1nc2ccccc2n1S(=O)(=O)c1ccccc1)N1CCCCC1 | 11.1 | 0.6 | 0.734 | -8.3 | -0.4 | x | 1.2
COc1ccc(NC(=O)C23CCC(C2)C(C)(C)C3=O)cc1 (stereo unspecified) | -2.7 | 3.2 | 0.695 | x | -1.5 | x | -1.4
CC(C)(C)n1nnnc1C(c1cccs1)N(Cc1ccc(Cl)cc1)CC1CCCO1 (stereo unspecified) | 8.0 | -2.1 | 0.753 | -10.8 | -1.2 | x | 3.2
COC(=O)c1cc(OC)c(OC)cc1NC(=O)c1ccc(C)cc1 | 14.4 | -3.0 | 0.692 | 3.7 | -4.6 | x | -174.7
O=C(CN1CCCCC1)N1CCCc2c1c(=O)oc1ccc(OCc3ccccc3)cc21 | 3.8 | 0.0 | 0.742 | 2.3 | -4.7 | x | -38.2
O=C(O)C1Nc2c(C(=O)N3CCOCC3)cccc2C2C=CCC12 (stereo unspecified) | 1.5 | -30.7 | 0.752 | -40.5 | 0.0 | x | 5.7
COc1ccc(C2(C(=O)NCCN3CCOCC3)CCOCC2)cc1 | 5.7 | 6.8 | 0.668 | -26.8 | 0.4 | x | 4.8
CCCN1CCC(=O)N(CCN=[N+]=[N-])CC1 | 3.9 | -3.8 | 0.7 | 0.2 | -4.0 | i | 0.2
O=C(NC1CCCCC1)C(c1ccco1)N(C(=O)c1csnn1)C1CCCC1 (stereo unspecified) | 1.8 | -3.8 | 0.617 | -10.9 | -1.4 | x | 1.7
COc1ccccc1Nc1nc(N)nc(CN2CCCCC2)n1 | -0.8 | 0.2 | 0.714 | -15.7 | 2.7 | i | 4.8
